CtBP-E1A blk = CtBP/E1A binding inhibition | AlphaScreen GST-E1A/His-CtBP binding, 1536-well; stronger effect = lower value; control for the full effect not named in the record | activity change, % (test concentration not listed) | 340,000 tested, 0.49% active | AID 651724; in the data active means activity change below about -65%; inconclusive means about -30% to -65%; inactive means above about -30%; note: % is set by controls: 0 for no effect and ±100 for the full control effect; compound concentration not given in the record
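Steps: dispense buffer (Tris pH 8.0, NaCl 300 mM, TCEP 1 mM, BSA, Tween 20); add 5X protein mix (GST-E1A, His-CtBP, 125 nM each); pin 23 nL compound; 2 h at 37 °C, dark; add 5X beads (50 ug/mL); 1 h; read.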
D2 agonist = agonists of human D2 dopamine receptor (beta-arrestin) | activation, % (concentration not given with the values) | P14416 | AID 624465 | DiscoveRx PathHunter D2 beta-arrestin, luminescence, 90 min; 100% = 57 uM dopamine signal | 360,000 tested, 0.084% active; in the data active = activation above about 40%; inconclusive = about 15% to 40%; inactive = below about 15%; note: compound concentration not given in the record; the text of the record calls up to 30% inactive
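DiscoveRx PathHunter D2 beta-arrestin cells (2,100/well) attached overnight, then compound-stimulated 90 min at 37 C in HBSS/10 mM HEPES/0.1% Tween-20 buffer; beta-galactosidase complementation read by luminescence after 1 h at ambient temperature. Dopamine 57 uM final (EC100) as control.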
gsp antagonist = antagonizes gsp, the McCune-Albright syndrome mutation | gsp-mutant cells, cAMP HTRF, 30 min; control for the full effect not named in the record | Potency, µM (series often up to 76.9 µM), for the others: at the highest dose activity change, negative = inhibition, usual class: inhibitors | AID 624288 | 340,000 tested, 0.4% active; active = falling curve of any shape with a large fitted effect; inconclusive = falling curve, mostly with a smaller effect; inactive = flat or rising curve; cell line not stated here;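 note: intracellular cAMP measured with PDE inhibitor Ro 20-1724 present during compound exposure; potency is the fitted concentration of half-maximal effect; % is set by controls: 0 for no effect and ±100 for the full control effect; nearly all actives have a fitted effect of over 65% in size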
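HTRF cAMP read-out (cAMP-d2 plus anti-cAMP antibody-K in lysis buffer, 30 min RT). Before lysis, cells are exposed to compounds with […] for 30 min at 37C in DPBS containing Ca/Mg, BSA and Tween 20.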
gsp agonist = activates gsp, the McCune-Albright syndrome mutation. Potency, µM (top dose mostly 76.9 µM), inactives show at the highest dose activation (cAMP increase), most hits filed as activators. gsp mutant cells, cAMP HTRF, 30 min; control for the full effect not named in the record. 340,000 tested, 0.13% active; active = well fitted activation curve with a large enough effect; inconclusive = small, poorly fitted or top-dose-only effect, or another doubt; inactive = no such curve, though single readings can be large or run the other way; cell line not stated here;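 note: phosphodiesterase inhibitor Ro 20-1724 added with compounds to block cAMP breakdown; potency is the fitted concentration of half-maximal effect; nearly all actives have a fitted effect of over 60% in size; about a fifth of the inactives were tested at one dose only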
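Cells in DMEM/10% FBS with G418 were pretreated with compounds in DMSO plus […] (300 uM stock) for 30 min at 37C. cAMP was measured by HTRF (cAMP-d2 plus anti-cAMP antibody-K) after 30 min at room temperature.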
Six1-Eya2 blk = blocks human Six1 binding to Eya2 | Q15475+O00167 | 360,000 tested, 0.56% active | AID 651725 | AlphaScreen GST-Six1/His-Eya2 binding, biochemical; stronger effect = lower value; control for the full effect not named in the record | activity change, % (no concentration beside the values); in the data active = activity change below about -65%; inconclusive = about -30% to -65%; inactive = above about -30%; note: % is set by controls: 0 for no effect and ±100 for the full control effect; compound concentration not given in the record
Target sequence (O00167 whole entry, looked up): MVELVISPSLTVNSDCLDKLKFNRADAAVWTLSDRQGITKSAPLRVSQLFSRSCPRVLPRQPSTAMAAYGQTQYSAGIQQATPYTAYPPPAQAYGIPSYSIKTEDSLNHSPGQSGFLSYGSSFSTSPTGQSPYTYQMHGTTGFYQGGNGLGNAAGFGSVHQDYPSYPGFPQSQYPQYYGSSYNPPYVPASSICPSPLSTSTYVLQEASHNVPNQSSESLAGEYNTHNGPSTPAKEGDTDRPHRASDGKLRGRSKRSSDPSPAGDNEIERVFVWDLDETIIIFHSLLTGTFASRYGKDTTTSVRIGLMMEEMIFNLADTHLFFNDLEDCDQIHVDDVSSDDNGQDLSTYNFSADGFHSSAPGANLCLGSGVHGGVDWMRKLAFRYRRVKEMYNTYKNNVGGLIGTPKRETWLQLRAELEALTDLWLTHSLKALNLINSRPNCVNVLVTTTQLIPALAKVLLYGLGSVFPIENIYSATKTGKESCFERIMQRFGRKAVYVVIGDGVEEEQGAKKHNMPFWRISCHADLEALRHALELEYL
Target sequence (Q15475 whole entry, looked up): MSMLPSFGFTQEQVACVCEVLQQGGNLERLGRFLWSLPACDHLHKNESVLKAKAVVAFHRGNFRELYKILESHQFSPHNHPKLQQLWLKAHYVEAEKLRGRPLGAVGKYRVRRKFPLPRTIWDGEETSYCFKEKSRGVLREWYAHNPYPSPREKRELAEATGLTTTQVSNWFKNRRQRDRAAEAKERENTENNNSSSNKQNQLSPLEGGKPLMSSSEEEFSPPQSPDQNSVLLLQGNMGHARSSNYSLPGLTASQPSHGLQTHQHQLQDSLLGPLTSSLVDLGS
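Compounds are tested against tagged Six1 and Eya2 proteins bridged by glutathione donor and nickel acceptor beads; after a one-hour incubation at 37 °C without light, AlphaScreen emission is recorded.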
D2 potentiator = human D2 receptor positive allosteric modulation; AID 624464; P14416; DiscoveRx D2 beta-arrestin cells, luminescence, 90 min; 100% = 57 uM dopamine signal; 360,000 tested, 0.23% active; potentiation, % (no concentration beside the values); active = potentiation of 50% or more; inconclusive = 30% to 50%; inactive = 30% or less;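 note: compound concentration not given in the record; tested on top of an EC20 dose of dopamine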
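PathHunter D2 cells, attached overnight at 37 deg C, received compound in DMSO plus dopamine at EC20 (50 nM final) for 90 min at 37 deg C. Beta-arrestin recruitment was read as luminescence after 1 h with detection reagent at ambient temperature.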
* marks the source's active call; other numbers are inactive results; ? = inconclusive; · = no result given; [ ] = another dose, or the depositor's remark.

CtBP-E1A blk	D2 agonist	gsp antagonist	gsp agonist	Six1-Eya2 blk	D2 potentiator	SMILES
-17	-0.1	-9%	-9%[15.4 µM]	-7	-9	O=C(Nc1cc(Cl)ccc1N1CCOCC1)c1cc2ccccc2o1
7	-3.4	9%	-39%[inhibitor]	0	-13	Cc1cn2c(nc1=O)OC1C(O)C(COC(=O)c3ccccc3)OC12 (stereo not drawn)
-9	3.7	10%	5%[15.4 µM]	-8	5	CCOc1ccc(CN2CCNC(=O)C2CC(=O)NCc2ccccn2)cc1 (stereo not drawn)
1	-3.1	11%	2%[15.4 µM]	-14	-12	O=C(NCCC1=CCCCC1)C(=O)NCCc1ccc(Cl)cc1
1	-4.4	8%	-1%	-2	-16	CCn1c(NCc2cccc(OC)c2OC)nc2ccccc21
-1	5.9	5%	9%[15.4 µM]	-4	-14	COc1ccc(CN2CCSCC2)c(C)c1C
·	-1.4	-24%	?	-3	-4	CC(=O)C1=C(C)Nc2ncnn2C1c1ccc(Br)cc1 (stereo not drawn)
16	-1.2	14%	0%	3	-1	CC1(C(=O)NC(=S)N(CCC#N)c2ccccc2)CC1(Cl)Cl (stereo not drawn)
-17	0.5	-8%	1%[15.4 µM]	-16	-14	N#Cc1c(-c2ccncc2)cc(-c2ccc(F)cc2)nc1N
7	-4.2	11%	?	12	1	CCC(=O)N1CCC(c2ccc(OC)cc2)=N1
1	-2.9	1%	·	1	·	COC(=O)[C@@]1(C)[C@H]2C(=O)N(C)C(=O)[C@H]2[C@H]2CN=C(SCC(=O)c3ccccc3)N21
4	-2.2	4%	6%	2	-3	Oc1ccc(-c2nc3ccccc3s2)cc1
3	-9.7	·	-8%	0	2	C[C@@H]1CN([C@H](C)CO)S(=O)(=O)c2ccc(C#CCN(C)C)cc2O[C@@H]1CN(C)Cc1ccccc1F
-9	-1.2	35µM*	0%	0	-23	O=C(CC(c1ccccc1)c1ccccc1O)NCc1ccccc1Cl (stereo not drawn)
-8	-4.4	3%	-4%[15.4 µM]	12	-23	CC1CCCCC1NC(=S)NC(=O)c1ccccc1Cl (stereo not drawn)
2	-0.6	5%	13%	-3	-7	Cc1nn(C)c(C)c1CCC(=O)N1CCCC(Nc2ccc(C(C)C)cc2)C1 (stereo not drawn)
-3	-0.8	10%	16%	1	-7	O=C(/C=C/c1c(F)cccc1Cl)Nc1ccncc1
-21	-2.7	·	·	1	-5	COc1ccc(C(Cl)=C(C=O)c2ccc(OC)c(OC)c2)cc1OC
-18	0.2	0%	?	-20	-4	CCOC(=O)CSc1nc2ccccc2n2c(C)nnc12
-1	3.5	0%	-22%	-10	-1	Cc1c(CNCc2cccs2)c(C(=O)O)c(C)n1Cc1ccccc1
3	-0.8	3%	-22%	2	-22	CCN1CCC2(CC1)N=C(c1ccc(F)cc1)C(=S)N2
5	-1.3	10%	?	-5	-8	COc1cc(C)c(Cl)c(C)c1S(=O)(=O)NC1CC(C)(C)NC(C)(C)C1
7	-2.2	-9%	13%[15.4 µM]	3	-7	CC(OC(=O)c1ncc(Cl)c(Cl)c1Cl)C(=O)NC1CCCCC1C (stereo not drawn)
-2	3.6	-4%	-55%	-13	-10	c1ccc(CCC2CCCCN2Cc2nc(-c3ccc4c(c3)OCO4)no2)nc1 (stereo not drawn)
2	-2.9	·	-31%[inhibitor]	9	-2	O=C1NC2C3CC(c4ccccc43)C12 (stereo not drawn)

Molecules above containing a cyano group:
CtBP-E1A blk	D2 agonist	gsp antagonist	gsp agonist	Six1-Eya2 blk	D2 potentiator	SMILES
16	-1.2	14%	0%	3	-1	CC1(C(=O)NC(=S)N(CCC#N)c2ccccc2)CC1(Cl)Cl (stereo not drawn)
-17	0.5	-8%	1%[15.4 µM]	-16	-14	N#Cc1c(-c2ccncc2)cc(-c2ccc(F)cc2)nc1N

Next results follow.
CtBP-E1A blk	D2 agonist	gsp antagonist	gsp agonist	Six1-Eya2 blk	D2 potentiator	SMILES
-6	-2.1	2%	-15%	3	-3	O=C(OC(C(=O)Nc1ccc(Cl)cc1C(F)(F)F)c1ccccc1)C1=COCCO1 (stereo not drawn)
7	5.2	19%	10%	5	5	O=C(CN1CCOCC1)Nc1ccc(S(=O)(=O)NC2CCCCC2)cc1
-2	1.8	6%	-10%	6	6	CCCn1c(=O)c2c(nc(Br)n2CCC)n(C)c1=O
5	-2.0	10%	11%[15.4 µM]	12	-3	COc1cc(C(=O)NCCNC(=O)c2cnccn2)cc(OC)c1OC
1	-2.9	5%	?	3	-9	Cc1cc(C(=O)N2CCN(S(C)(=O)=O)CC2)sc1-c1ccccc1
-3	-2.6	·	·	-4	-3	CCCCNC(=O)C1(C)CCCCN1C(=O)c1c(Cl)cccc1Cl (stereo not drawn)
1	-2.2	8%	-67%[inhibitor]	-2	-1	Clc1ccccc1-c1nnc2sc(CCc3ccccc3)nn12
6	-0.7	32µM*	?	5	18	Cc1ccccc1OCc1nnc(SCC(=O)Nc2ccc3nc(SCC(=O)NC(C)(C)C)sc3c2)n1C
0	-6.8	19%	-1%[15.4 µM]	3	-7	COc1cc(NC(=O)CCNC(=O)Cn2ccc3ccccc3c2=O)cc(OC)c1OC
-1	?	?	?	-13	4	Cc1cc(O)c(C(C)C)cc1N=Cc1ccc(N(C)C)cc1
-4	-1.9	2%	-11%	4	-34	Cc1nc(C(=O)N2CCCC(N3CCN(c4ccccc4C)CC3)C2)cs1 (stereo not drawn)
·	-1.1	-9%	0%	-9	-12	O=C(Nc1ccc(OCc2ccccc2)cc1)c1cccs1
9	14	0%	12%[15.4 µM]	8	-16	CC1(C)CC(=O)C(C=NCCN2CCN(C3CC(=O)N(c4cccc(Br)c4)C3=O)CC2)=C(O)C1 (stereo not drawn)
6	-0.2	-28%	17%	29	0	O=C(CSc1nnnn1-c1ccc2c(c1)OCCO2)OC1CCCCC1
2	0.3	8%	13%	-4	-13	Cc1ccc(C(=O)N2CCN(C34CC5CC(CC(C5)C3)C4)CC2)o1
-5	-2.5	-8%	-48%[inhibitor]	-1	-7	Cc1ccc(S(=O)(=O)NN=Cc2ccc(N3CCOCC3)cc2)cc1[N+](=O)[O-]
17	-2.1	3%	-43%	1	-17	COc1cccc(CCNC(=O)c2ccc(C#N)cc2)c1
·	-1.8	9%	-27%	0	-3	Cc1ccc(Cl)cc1NC(=O)CC1NC2CCCCC2NC1=O (stereo not drawn)
6	-2.0	1%	-5%	6	-4	CC1CCCCN1S(=O)(=O)c1cccc(S(=O)(=O)N2CCOCC2)c1 (stereo not drawn)
-7	1.3	-12%	-16%	-19	3	CCc1nnc(NS(=O)(=O)c2ccc(NCc3cc(Cl)ccc3O)cc2)s1
·	-1.3	8%	18%	2	-5	Cn1c(=O)c(-c2ccccc2)c(O)c2ccccc21
4	1.9	-1%	6%	-1	-4	Nc1nc(-c2ccc(Cl)cc2)nn1C(=O)c1cccnc1
-8	-4.2	4%	?	-2	-25	O=C(CSCCO)Nc1cccc([N+](=O)[O-])c1
0	?	-17%	-6%	-3	-5	O=C(COc1ccccc1)NCC(c1ccco1)N1CCN(c2ccccc2F)CC1 (stereo not drawn)
·	-0.9	-3%	-3%	10	-9	COc1cccc(OC)c1C(=O)OCC(=O)NC1CCCCCC1
-21	5.3	-15%	·	-1	-21	OC(CN1CCN(c2cccc(Cl)c2)CC1)C(c1ccccc1)c1ccccc1 (stereo not drawn)
-21	-4.7	·	·	-23	-8	COc1ccc(OC)c(C(O)c2ncc(-c3cccc4ccccc34)[nH]2)c1 (stereo not drawn)
8	-3.2	15%	23%	31	-12	CC(C)=CCSc1nnc([C@@H](NC(=O)OC(C)(C)C)C(C)C)o1
7	1.4	-2%	-9%	0	-6	O=C(Cn1cnc2c(nnn2Cc2ccc(Cl)cc2)c1=O)OCc1ccccc1
?	-1.3	2%	?	?	-7	CSc1nc(SCC(N)=O)c2c3c(sc2n1)CN(C)CC3
-3	-3.0	5%	0%	-14	-4	CCOC(=O)CC(=O)Nc1cc(Cl)ccc1O
-15	-3.7	-13%	0%	-9	-14	COc1ccc(C)cc1NC(=O)c1nn(C)c(C(=O)Nc2cc(C)ccc2OC)c1[N+](=O)[O-]
0	-1.3	-6%	42%	3	-9	CC1CCN(C(=O)CN(Cc2ccccc2)S(C)(=O)=O)CC1
3	-1.2	3%	7%	7	-9	Cc1ccc(Oc2ccc(S(=O)(=O)N3CCOCC3)cc2C(N)=O)c(-n2nc3ccccc3n2)c1
-5	2.5	-2%	?	-2	-2	COc1ccc(SC[C@H](C)CN2CC[C@H](C)CCC2=O)cc1
-2	-2.1	-31%	-11%	-10	-2	COc1ccccc1-n1cnc2cc(NS(=O)(=O)c3ccccc3)ccc21
4	2.3	-9%	12%[15.4 µM]	4	-10	Fc1cccc(CSc2nc3ncc(Cl)cc3[nH]2)c1
-15	-3.0	-16%	-48%[inhibitor]	-10	1	CCNc1nc(NCC)n2c(SC(C(=O)Nc3cc(C)ccc3OC)c3ccccc3)nnc2n1 (stereo not drawn)
4	-2.5	-5%	-2%	2	-8	CC1(N=Cc2cc(Cl)ccc2O)COP(=O)(NC2CCCC2)OC1 (stereo not drawn)
6	-5.3	·	·	11	-6	CC(C)[C@@H](CO)NC(=O)[C@H]1O[C@@H](n2cnc3c(N)ncnc32)[C@H](O)[C@@H]1O
15	-2.1	10%	0%[15.4 µM]	-11	-10	CC(O)CNCCCCOc1ccc(OCc2ccccc2)cc1 (stereo not drawn)
·	0.8	0%	0%	3	3	CCOC(=O)c1nnn(CC(=O)NC(=O)Nc2cccc(CC)c2)c1C(=O)OCC
1	2.1	·	·	-5	-5	Cn1c(=O)c2cc(NC(=O)NCc3ccc(Cl)cc3Cl)ccc2n1Cc1ccc(F)cc1
·	-0.7	-6%	14%	4	-5	CC(C)CN(C(=O)CN1CCc2ccccc21)c1c(N)n(CC(C)C)c(=O)[nH]c1=O
18	-0.3	12%	3%	1	-5	CCOC(=O)N1CCN(C(=O)CSc2ncccn2)CC1
7	1.4	?	-41%[inhibitor]	3	-9	CC(C)CC(NC(N)=O)C(=O)NCCc1ccc(Cl)cc1Cl (stereo not drawn)
-2	-4.9	?	4%[15.4 µM]	5	-13	CC1CCCN(CC(O)COc2ccc3c(c2)OCO3)C1 (stereo not drawn)
-27	2.2	4%	6%[15.4 µM]	-27	-3	Cc1cccn2c(=O)c3cc(C(=O)NCCCOC(C)C)sc3nc12
-1	1.9	-5%	-6%	-6	2	COc1cccc(C2=CC(=O)CC(c3ccco3)C2)c1 (stereo not drawn)
1	-2.3	-29%	-6%	-9	8	Cc1onc(-c2ccccc2)c1C(=O)N/N=C/c1cc(Br)c(O)c(Br)c1

Retrieved one by one from the entries so far:
CtBP-E1A blk	D2 agonist	gsp antagonist	gsp agonist	Six1-Eya2 blk	D2 potentiator	SMILES
18	-0.3	12%	3%	1	-5	CCOC(=O)N1CCN(C(=O)CSc2ncccn2)CC1
-2	-2.1	-31%	-11%	-10	-2	COc1ccccc1-n1cnc2cc(NS(=O)(=O)c3ccccc3)ccc21

High-throughput results as filed in PubChem.
